ARNT-TACC3 inh = disrupts binding between human ARNT and TACC3. AlphaScreen His-ARNT PAS-B/GST-TACC3 binding, luminescence; TACC3 fragment carries E629A point mutation. Q9Y6A5. inhibition, % at 9.99 µM. 390,000 compounds, 0.66% hits;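 active = mean inhibition of replicates at least 50% and at least half of replicates each reaching 50%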;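 also: 0% = complete ARNT plus TACC3 wells and 100% = ARNT alone without TACC3; many hits fall short of the cut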
SIRT5 block = inhibitors of human sirtuin-5 desuccinylase. inhibition, % at 15 µM. 330,000 compounds, 1.1% hits. Q9NXA8. Purified SirT5, succinyl-peptide AMC, trypsin-coupled fluorescence; in the data active = inhibition above about 15%
Casp6 inh = inhibitors of human caspase-6 | P55212 | purified caspase-6, Z-VEID-R110 cleavage fluorescence | inhibition, % at 12.5 µM | 350,000 compounds, 0.53% hits;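 active = mean inhibition across replicates at least about 35%, with every replicate also reaching that limit, limit read from the data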;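 also: 0% = median of neutral control wells and 100% = no fluorescence left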
The depositor's hits bear a star; nt = not tested or not shown. An excerpt; rates above refer to the full screens.

The opening 5 entries as a preview:
1) O=C(c1ccc(NS(=O)(=O)c2ccccc2)cc1)N1CCN(c2ccccc2)CC1
2) O=C(NCCN1CCC(n2c(=O)[nH]c3ccccc32)CC1)c1ccc2ccccc2c1
3) C[C@H]1CN([C@@H](C)CO)C(=O)c2cc(NC(=O)CCCN(C)C)ccc2O[C@@H]1CN(C)S(=O)(=O)c1ccc(Cl)cc1
4) COc1ccc2nc(-c3ccc(F)cc3)sc2c1
5) CC(C)(C)c1cc(NC(=O)COC(=O)c2ccccc2O)n(-c2ccccc2)n1

Compound | 1 | 2 | 3 | 4 | 5
ARNT-TACC3 inh | nt | nt | -7 | -2 | nt
SIRT5 block | -3 | -5 | -2 | nt | 2
Casp6 inh | -4 | -4 | 0 | 8 | -1

Results (from the top)
1) O=C(c1ccc(NS(=O)(=O)c2ccccc2)cc1)N1CCN(c2ccccc2)CC1
2) O=C(NCCN1CCC(n2c(=O)[nH]c3ccccc32)CC1)c1ccc2ccccc2c1
3) C[C@H]1CN([C@@H](C)CO)C(=O)c2cc(NC(=O)CCCN(C)C)ccc2O[C@@H]1CN(C)S(=O)(=O)c1ccc(Cl)cc1
4) COc1ccc2nc(-c3ccc(F)cc3)sc2c1
5) CC(C)(C)c1cc(NC(=O)COC(=O)c2ccccc2O)n(-c2ccccc2)n1
6) CC(=O)Nc1cccc(-c2nnc(-c3ccc(C)cc3)o2)c1
7) NS(=O)(=O)c1ccc(NC(=O)Nc2ccc(C(F)(F)F)cc2)cc1
8) COc1ccc(C2CC(c3ccccc3)=NN2C(=O)CCCC(=O)O)cc1 (stereo unspecified)
9) NS(=O)(=O)c1ccc(NC(=O)Nc2ccccc2)cc1
10) CCOc1ccc2nc(S(N)(=O)=O)sc2c1
11) N#Cc1c(-c2cccc(Br)c2)cc(-c2ccco2)[nH]c1=O
12) CC(=O)c1nc2ccccc2n1S(=O)(=O)c1ccc(Cl)cc1
13) CCOc1ccccc1C1NC(=O)c2ccccc2N1 (stereo unspecified)

Compound | 1 | 2 | 3 | 4 | 5 | 6 | 7 | 8 | 9 | 10 | 11 | 12 | 13
ARNT-TACC3 inh | nt | nt | -7 | -2 | nt | -10 | nt | -1 | -3 | -4 | -7 | -9 | -6
SIRT5 block | -3 | -5 | -2 | nt | 2 | 0 | -1 | -1 | -1 | -5 | 0 | -4 | nt
Casp6 inh | -4 | -4 | 0 | 8 | -1 | -1 | 4 | -1 | 1 | -2 | 16 | -4 | -2

Assay outcomes from PubChem BioAssay.
